Compound activity: PubChem, National Center for Advancing Translational Sciences (NCATS)
VDR inh: vitamin D3 receptor (human) inhibition. P11473. VDR-SRC2-3 peptide fluorescence polarization, 2 h. Potency, µM, for inactives: max response, negative = inhibition, hits mostly inhibitors. 400,000 compounds, 0.93% hits; active = well fitted inhibition curve with a large enough effect; inconclusive = small, poorly fitted or top-dose-only effect, or another doubt; inactive = no such curve, though single readings can be large or run the other way; note: series mostly up to about 120 µM
Target sequence (P11473 whole entry, looked up): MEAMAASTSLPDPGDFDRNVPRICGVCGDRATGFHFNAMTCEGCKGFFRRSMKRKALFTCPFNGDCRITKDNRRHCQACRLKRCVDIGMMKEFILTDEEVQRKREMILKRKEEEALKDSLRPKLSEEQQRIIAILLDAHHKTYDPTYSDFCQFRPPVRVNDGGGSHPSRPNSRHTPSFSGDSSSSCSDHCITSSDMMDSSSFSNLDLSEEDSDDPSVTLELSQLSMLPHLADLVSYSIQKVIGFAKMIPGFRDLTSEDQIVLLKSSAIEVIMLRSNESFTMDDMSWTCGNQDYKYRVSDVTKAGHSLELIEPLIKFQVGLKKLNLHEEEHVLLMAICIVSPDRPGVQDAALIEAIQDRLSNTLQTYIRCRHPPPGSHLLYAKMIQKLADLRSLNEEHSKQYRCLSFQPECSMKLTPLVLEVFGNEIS
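Inhibition of the VDR/SRC2-3 peptide interaction is quantified by fluorescence polarization. Compounds (23 nl, pintool) incubate with the reagents for 2 hours at ambient room temperature.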
* = called active by the depositor; ? = inconclusive; [ ] = another dose, or the depositor's remark. % is set by controls: 0 for no effect and ±100 for the full control effect; potency is the fitted concentration of half-maximal effect. Only part of the results is shown; rates above refer to the full screens.

SMILES	VDR inh
N#Cc1ccc(-c2csc(NC(=O)c3ccc(N4C(=O)CCC4=O)cc3)n2)cc1	-6%
O=C(OCC1CCCO1)c1ccc2c(c1)N(Cc1c(F)cccc1Cl)C(=O)c1ccccc1S2(=O)=O (centres undefined)	11%
Cc1cc(NC(=O)c2ccccc2Cl)ccc1NC(=O)c1ccccc1	-28%
CCOC(=O)c1c(-c2cccc(C)c2)csc1NC(=O)C1CC=CCC1C(=O)O (centres undefined)	0%
Cc1ccc2nc(C)cc(C(=O)Nc3nccs3)c2c1	-15%
Cc1ccc(N(CC(=O)NC(C)C)C(=O)CCC(=O)Nc2ccccn2)cc1	-5%
Cc1ccccc1C(=O)Nc1ccc2nc(N3CCCCC3)cc(C)c2c1	1%
O=C(CN1C(=O)NC(c2ccccc2)(c2ccccc2)C1=O)NCCNCCO	-7%
N#Cc1ccc(CSc2ncccn2)cc1	4%
O=C1CSc2ccc(C(=O)NCCc3ccc(Cl)cc3Cl)cc2N1	-10%

In another format: two of the compounds above.
VDR inh | smiles
-15% | Cc1ccc2nc(C)cc(C(=O)Nc3nccs3)c2c1
-5% | Cc1ccc(N(CC(=O)NC(C)C)C(=O)CCC(=O)Nc2ccccn2)cc1

The list continues:
SMILES	VDR inh
COc1ccc(-c2cnc(C)o2)cc1S(=O)(=O)Nc1ccc(C)c(N(C)C)c1	2%
Cc1cccc(CN2C(=O)[C@@H]3Cc4c([nH]c5ccccc45)C(C)(C)N3C2=O)c1	5%
COC(=O)c1cc(N2C(=O)C3C4C=CC(CC4)C3C2=O)ccc1Cl (centres undefined)	11%
Cc1ccc(N2C(=O)CC(N3CCSCC3)C2=O)c(C)c1 (centres undefined)	5%
Cn1c(=O)c(=O)n(C)c2cc(S(=O)(=O)N3CCN(c4ccccc4)CC3)ccc21	-24%
CCC/C(=N\NC(=O)c1cccc(C)c1)c1ccccc1	-14%
O=C(NCc1ccco1)/C(=C/c1ccc(C(F)(F)F)cc1)c1nc2ccccc2[nH]1	3%
COc1cc(C)nc(SCC(N)=O)n1	-8%
CC(C)(C)NC(=O)CN(C(=O)c1ccc(CN2CCOCC2)o1)c1ccc2c(c1)OCCO2	-22%
COc1ccc(C(=O)NC2=Nc3ccccc3N=C(C)C2c2ccccc2)cc1 (centres undefined)	7%
Oc1c(Cl)cc(Cl)cc1/C=N/Nc1ncc(Br)cn1	41%[activator]
C[C@@H]1CN(S(=O)C(C)(C)C)[C@@H](CCO)/C1=C\c1ccccc1 (some centres undefined)	7%
Cc1cccc(N2CCN(C(=O)n3ccnc3)CC2)c1C	7%
CC(C)(CNC(=O)c1cc(Cl)c(O)c(Cl)c1)N1CCCCC1	0%
COC(=O)c1ccccc1NC(=O)Cc1nc(-c2ccccc2)sc1-c1ccc(C)cc1	-5%
Cc1cc(N2CCOCC2)n2ncc(-c3ccccc3)c2n1	7%
COc1ccc2[nH]c3c(c2c1)CCN1C(=O)C(CC(=O)NCc2ccco2)C[C@H](C(=O)N(C(C)C)C(C)C)[C@@]31C (some centres undefined)	?
CCN(CC)CCCN1C(=O)C(O)=C(C(=O)c2ccc(C)o2)C1c1ccc(C)o1 (centres undefined)	-21%
O=C(CCc1ccc(O)c(O)c1)N/N=C/c1cc2c(cc1[N+](=O)[O-])OCO2	-7%
O=C(c1cc(COc2ccc(F)cc2Cl)on1)N1CCc2sccc2C1	14%
O=C(Cn1cnc2ccccc21)N1CCc2ccccc21	17%
O=C(Nc1ccccc1OC(F)F)c1cc2c(s1)CCC2	-5%
C=CCOc1c(CNc2ncn[nH]2)cccc1OC	-1%
CC1CN(C(=S)NC(=O)c2ccco2)CC(C)O1 (centres undefined)	-3%
O=C(N/N=C/c1ccc(O)cc1)c1ccc(NC(=O)c2ccccc2Br)cc1	22%
C=CCNC(=O)/C(C#N)=C/c1c(N2CCN(c3cccc(Cl)c3)CC2)nc2c(C)cccn2c1=O	-11%
COc1ccc(-c2nc3ccccc3o2)cc1NC(=O)c1ccc(Br)o1	3%
CCOc1ccc(C(=O)NCC(=O)OC2CCOC2=O)cc1OCC (centres undefined)	5%
O=C(CNCCO)NC12CC3CC(CC(C3)C1)C2	-1%
COc1cc(C2C3=C(CC(C)(C)CC3=O)OC3=C2C(=O)CC(C)(C)C3)cc([N+](=O)[O-])c1O	0%

Exported with values ahead of the structure: entries from further up
VDR inh | molecule
7% | Cc1cccc(N2CCN(C(=O)n3ccnc3)CC2)c1C
0% | CC(C)(CNC(=O)c1cc(Cl)c(O)c(Cl)c1)N1CCCCC1
-5% | COC(=O)c1ccccc1NC(=O)Cc1nc(-c2ccccc2)sc1-c1ccc(C)cc1
7% | Cc1cc(N2CCOCC2)n2ncc(-c3ccccc3)c2n1
? | COc1ccc2[nH]c3c(c2c1)CCN1C(=O)C(CC(=O)NCc2ccco2)C[C@H](C(=O)N(C(C)C)C(C)C)[C@@]31C (some centres undefined)
-21% | CCN(CC)CCCN1C(=O)C(O)=C(C(=O)c2ccc(C)o2)C1c1ccc(C)o1 (centres undefined)
-7% | O=C(CCc1ccc(O)c(O)c1)N/N=C/c1cc2c(cc1[N+](=O)[O-])OCO2
14% | O=C(c1cc(COc2ccc(F)cc2Cl)on1)N1CCc2sccc2C1
17% | O=C(Cn1cnc2ccccc21)N1CCc2ccccc21
-5% | O=C(Nc1ccccc1OC(F)F)c1cc2c(s1)CCC2
-1% | C=CCOc1c(CNc2ncn[nH]2)cccc1OC
-3% | CC1CN(C(=S)NC(=O)c2ccco2)CC(C)O1 (centres undefined)
22% | O=C(N/N=C/c1ccc(O)cc1)c1ccc(NC(=O)c2ccccc2Br)cc1
-11% | C=CCNC(=O)/C(C#N)=C/c1c(N2CCN(c3cccc(Cl)c3)CC2)nc2c(C)cccn2c1=O
3% | COc1ccc(-c2nc3ccccc3o2)cc1NC(=O)c1ccc(Br)o1
5% | CCOc1ccc(C(=O)NCC(=O)OC2CCOC2=O)cc1OCC (centres undefined)
-1% | O=C(CNCCO)NC12CC3CC(CC(C3)C1)C2

The results go on:
SMILES	VDR inh
Cc1ccccc1OCC(=O)OCC(=O)Nc1ccc(N2CCOCC2)cc1	-8%
Cn1cc(CN2CCCC(C(=O)c3nccn3C)C2)c(-c2cccc(Cl)c2)n1 (centres undefined)	0%
COC(=O)/C(C#N)=C/c1ccc(N2CCOCC2)c([N+](=O)[O-])c1	6%
CC(C)CCCN1C(Nc2ccccc2)=NC[C@@H]1CC(C)C	-16%
Cc1ccc(C)c(S(=O)(=O)N2CCN(C(=O)CCC(=O)NCc3ccc(Cl)cc3Cl)CC2)c1	-7%
O=C(CSc1nc2ccsc2c(=O)n1Cc1ccccc1Cl)NCc1ccc(Cl)cc1	0%
O=C(CN1CCN(c2ccccn2)CC1)Nc1cccc(Cl)c1Cl	-21%
Cc1nn(-c2ccccc2)nc1C(=O)NN	-7%
COc1cc(C(=O)Nc2sc3c(c2C(=O)O)CCC(C)C3)cc(OC)c1OC (centres undefined)	10%
Cc1cc(=O)n(C(C)(C)C)c(=O)n1Cc1ccccc1	8%
O=C(O)C1CCC(CNCc2ccccc2Cl)CC1 (centres undefined)	-1%
C[C@H]1COC(=O)[C@H](CC(=O)OC(C)(C)C)C/C=C\C[C@@H](CC(=O)NCCO)C(=O)N1	0%
CC(=O)NC1C(Oc2ccccc2C)OC2COC(c3ccco3)OC2C1O (centres undefined)	-8%
CCN=C1SC(CC(=O)Nc2ccc(N3CCOCC3)cc2)C(=O)N1CC (centres undefined)	-9%
CCC(=O)c1ccc(OCC(=O)Nc2ccccc2N2CCCCC2)cc1	7%
COc1cc(C(=O)N[C@@H](Cc2c[nH]c3ccccc23)C(=O)O)cc(OC)c1OC	-2%
COc1ccc(C2(CNC(=O)c3ccccc3[N+](=O)[O-])CCOCC2)cc1	8%
COC(=O)c1nc(NC(=O)C(C)C)n[nH]1	7%
CC(C)NC(=S)N/N=C/c1sc(N2CCCCC2)nc1-c1cccs1	10%
Cc1ccc(Nc2ncccc2C(N)=O)cc1[N+](=O)[O-]	-10%
CN(C)CC[C@@H](c1ccccc1)c1ccccn1	1%
O=C(NCCSc1ccccc1)c1ccccc1	-1%
O=C(OCCNc1nc(-c2ccccc2)nc2ccccc12)c1cccnc1	6%
CN(C)S(=O)(=O)c1cccc(NC(=O)c2cc(=O)[nH]c(=O)[nH]2)c1	6%
Cc1[nH]c2ccccc2c1C(C#N)(C#N)C1C(=O)c2ccccc2C1=O	-25%
CCCCN(Cc1ccccc1)C(=O)CN(C)S(=O)(=O)c1ccc2c(c1)c(=O)n(C)c(=O)n2C	11%
NC(=O)C1CCN(C(=O)CCSc2ccccc2)CC1	-3%
CCN(CC)c1ccc(NC(=O)c2cccc(C)c2OC)c(C)c1	9%
O=S(=O)(c1ccc2ncn(O)c2c1)N1CCOCC1	5%
CCCc1cc(=O)[nH]c(SCC(=O)Nc2ccc(OC(F)F)cc2)n1	3%
Cc1ccc(S(=O)(=O)Nc2cccc(CP(=O)(c3ccccc3)c3ccccc3)c2)cc1	-10%
Cc1ccc2c(c1)c1c(n2CC(O)CNC(C)(C)C)CCCC1 (centres undefined)	-19%
CCc1ccccc1N1CC(c2nc3ccccc3n2CCC2CCCCC2)CC1=O (centres undefined)	-3%
COc1ccc(F)cc1S(=O)(=O)Nc1cc2c3c(c1)CC(=O)N3CCC2	-11%
O=C(CSc1nncs1)N1CCN(S(=O)(=O)c2ccccc2)CC1	-6%
CCSc1cc(C)nc2c(-c3ccc(Cl)cc3)c(C)nn12	-5%
CCOC(=O)C(=O)Nc1ccc(OCc2ccccc2)cc1	-4%
Cc1ccc(C(=O)NCC(=O)OCCOc2cccc(Cl)c2)cc1	-1%
COc1ccccc1N1CCN(C(=O)c2ccc(CN3CCc4ccccc4C3)cc2)CC1	13%
CCC(=O)Nc1ccc(/C(C)=N/NC(=O)c2c(Br)c(C)nn2C)cc1	7%
CCOC(=O)C(Cc1c[nH]c2ccccc12)NC(=O)COc1ccc(Cl)cc1 (centres undefined)	4%
COc1ccc(N2CCN(C(=O)[C@@H]3CCCN3C3=NS(=O)(=O)c4ccccc43)CC2)cc1	8%
CCOc1ccc(OCCCC(=O)Nc2nc3ccccc3[nH]2)cc1	0%
CN(C(=O)COC(=O)c1cccc(S(=O)(=O)N2CCCCC2)c1)C1CCS(=O)(=O)C1 (centres undefined)	2%
Nc1cc(=O)[nH]c(SCC(=O)Nc2cccc(Cl)c2Cl)n1	-5%
CN1CCN(C(=O)CSc2nc3c(c(=O)n(C)c(=O)n3C)n2C)CC1	4%
Cc1nc(NC(=O)c2ccc(Cl)cc2)sc1Cc1ccc2c(c1)OCO2	79µM*
O=C(COc1ccccc1[N+](=O)[O-])Nc1ccc(N2CCN(C(=O)c3cccs3)CC2)cc1	-14%
Cc1c(NS(=O)(=O)c2cc(C(=O)NCc3cccnc3)cc(Cl)c2Cl)c(=O)n(-c2ccccc2)n1C	-10%
CC(C)CCNC(=O)C1CCC(CNc2c(N3CCCC3)c(=O)c2=O)CC1 (centres undefined)	-3%

Later entries
SMILES	VDR inh
COc1ccc(OC)c(COC(=O)c2cccc(S(=O)(=O)N3CCCCC3)c2)c1	30%[activator]
Cc1cccc(OCC(=O)Nc2nc(-c3ccncc3)cs2)c1	-6%
CCOC(=O)CC(=O)CSc1nc2c(sc(=S)n2-c2ccc(OCC)cc2)c(=O)[nH]1	-15%
Cc1c(CCO)c(=O)n(C)n1C(=O)c1ccc(F)cc1	-8%
CCCC(=O)Nc1sc2c(c1C#N)CCCC2	7%
O=c1c2cc(-c3ccccc3)sc2ncn1-n1cccc1	-1%
CC(OC(=O)CCc1nc2ccccc2[nH]c1=O)C(=O)c1ccccc1 (centres undefined)	2%
CCOc1ccc(NC(=O)NNC(=O)COc2ccc3ccccc3c2)cc1	-4%
CC(NS(=O)(=O)/C=C/c1ccccc1)c1ccccc1 (centres undefined)	20%
O=C1CC(c2ccccc2)Sc2nc(-c3ccccc3)c(-c3ccccc3)n21 (centres undefined)	-19%
O=C(Cn1c(=O)sc2ccccc21)N1CCOCC1	-7%
COc1ccc(OC)c(NC(=O)CCN2CCN(c3ccccc3)CC2)c1	14%
CCOc1cc(/C=C/C(=O)c2ccc(O)cc2)ccc1OCC(=O)N(C)C	-5%
CCOc1ccc(S(=O)(=O)n2cc(-c3ccccc3)c(N)n2)cc1	5%
O=C(CCl)N1N=C(c2cccs2)CC1c1ccco1 (centres undefined)	-8%
Cc1ccc(NC(=O)CN2C(=O)NC(C)(C3CC3)C2=O)c([N+](=O)[O-])c1 (centres undefined)	6%
CN(C)S(=O)(=O)c1ccc(NC(=O)COC(=O)C2CC3CCCC(C2)C3=O)cc1 (centres undefined)	?
O=C(Nc1ccccc1)C1CCN(C(=O)c2ccc([N+](=O)[O-])cc2)CC1	7%
COc1ccc(Cc2noc(CN3CCCN(C4Cc5ccccc5C4)CC3)n2)cc1OC	14%
C=CCNC(=O)COC(=O)CNC(=O)c1cc(Cl)cc([N+](=O)[O-])c1	-6%
CC1=NN(c2ccccc2)C(=O)/C1=C/c1cc(C)n(C2CC2)c1C	2%
Cc1c(Cl)cccc1-c1ccc(CNCCSc2nnnn2-c2ccccc2)o1	5%
COC(=O)c1c(NC(=O)COC(=O)CCS(=O)(=O)c2ccc(C)cc2)sc(C)c1C	-6%
CCCCCC1CC(CC(=O)NC(=S)Nc2ccc([N+](=O)[O-])cc2)C(=O)O1 (centres undefined)	-10%
CC(C)n1c(CNC(=O)c2ccccc2)nc2ccccc21	11%
NC(=O)C1CCN(c2cc(Cl)ccc2[N+](=O)[O-])CC1	-17%
Cc1ccc(S(=O)(=O)N(Cc2ccccc2)c2ccccc2C(=O)NCc2ccco2)cc1	-15%
CCCCC(O)(CCCC)C(=O)NNc1ccccc1	-4%
O=C1Nc2ccccc2/C1=C/c1cccnc1	?
Cc1nn(-c2ccc(N3CCCC3)nn2)c(C)c1CCC(=O)NCc1ccccc1	0%
